YopH PTP inh = blocks Yersinia enterocolitica YopH tyrosine phosphatase. 0.16% of 140,000 active. inhibition, %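 (about 10 µM by stock and volumes)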. fluorescence Ex485/Em525;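 active means inhibition of 50% or more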;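 further: controls were vehicle for no effect and minimum signal wells for full effect; inactives centre near -20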
Arbovirus inh = arbovirus infection inhibition. arbovirus infection cell-based antiviral screen. inhibition, % at 10 µM. 0.37% of 200,000 active;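 active means inhibition from about 30%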;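 further: bluetongue infection of BSR cells; cell survival read as ATP light after 72 h; 0% = infected wells without compound and 100% = uninfected wells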
RecA splice inh = Mtb RecA intein splicing inhibition | P9WHJ3 | cell-free RecA intein splicing, fluorescence | inhibition, %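 (about 9 µM by stock and volumes)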 | 0.75% of 290,000 active; in the data active means inhibition above about 30%; inconclusive means no clear call, values can overlap the other calls;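 further: 0% = vehicle wells and 100% = reference inhibitor control wells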
Target sequence (P9WHJ3 whole entry, looked up, canonical isoform): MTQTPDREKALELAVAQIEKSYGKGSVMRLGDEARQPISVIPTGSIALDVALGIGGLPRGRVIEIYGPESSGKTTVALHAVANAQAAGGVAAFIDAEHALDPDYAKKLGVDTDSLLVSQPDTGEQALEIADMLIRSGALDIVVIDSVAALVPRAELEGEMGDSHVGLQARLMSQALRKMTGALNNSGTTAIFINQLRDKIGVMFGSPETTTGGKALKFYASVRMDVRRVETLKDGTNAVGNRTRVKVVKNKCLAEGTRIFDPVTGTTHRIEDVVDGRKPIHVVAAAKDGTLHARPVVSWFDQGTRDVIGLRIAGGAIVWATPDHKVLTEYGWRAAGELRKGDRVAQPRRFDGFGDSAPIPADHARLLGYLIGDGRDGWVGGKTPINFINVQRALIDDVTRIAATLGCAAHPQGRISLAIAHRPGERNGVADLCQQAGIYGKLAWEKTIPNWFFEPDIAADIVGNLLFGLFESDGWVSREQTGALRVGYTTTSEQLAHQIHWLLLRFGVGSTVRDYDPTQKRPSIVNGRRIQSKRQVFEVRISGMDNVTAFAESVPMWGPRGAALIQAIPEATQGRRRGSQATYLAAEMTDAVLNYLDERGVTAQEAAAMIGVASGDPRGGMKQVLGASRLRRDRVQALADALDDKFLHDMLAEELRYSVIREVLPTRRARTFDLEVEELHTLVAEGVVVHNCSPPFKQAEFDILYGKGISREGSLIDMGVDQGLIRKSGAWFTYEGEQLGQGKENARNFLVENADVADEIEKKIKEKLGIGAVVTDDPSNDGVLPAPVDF
Mtb H37Rv = M. tuberculosis H37Rv growth inhibitors, H37Rv strain (AID 1626); one-dose inhibition, % at 10 µM; IC50 in µM for titrated hits; M. tuberculosis H37Rv growth inhibition; higher % means a stronger effect; 0.95% of 220,000 active;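 active means confirmed in a dose series; inconclusive means inhibition above 80% but not taken into the dose series; inactive means below 80% or under 30% at every dose of the series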;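 further: bacteria incubated seven days before Alamar blue readout; 0% = bacteria only wells and 100% = bacteria with antibiotic wells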
Mtb betalactam = beta-lactam sensitization of Mtb H37Rv | 0.27% of 330,000 active | AID 434955 | inhibition, % at 25 µM | M. tuberculosis H37Rv growth with meropenem, percent inhibition; hits of this screen are not shown here;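 active means about 74% or more and at least 40 points above the plate without the antibiotic, then above 30% in a dose series; inconclusive means first-round hits that could not be retested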;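 further: growth measured after seven days incubation then overnight dye step; 0% = bacteria only wells and 100% = bacteria with antibiotic; twin plates without the antibiotic show which effects depend on it; some results filed as inactive read as strong as hits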
Arbovirus inh repeat = second read-out of Arbovirus inh, no call of its own (marks repeat the call); inhibition, %; measured here: 10K subset replicate screen; many hits read low in the repeat;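 first of two repeat runs on a subset; 0% = infected and 100% = uninfected wells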
The depositor's hits bear a star.

What do the screens show for `S=c1[nH]nc(Nc2cccc(Cl)c2)s1`?
Arbovirus inh: -4; RecA splice inh: -3.5; Mtb H37Rv: 4%; Mtb betalactam: -2

What do the screens show for `Cc1cccc2[nH]c3c(N4CCC5(CC4)OCCO5)ncnc3c12`?
YopH PTP inh: -32; Arbovirus inh: -9; RecA splice inh: -1.4; Mtb H37Rv: 1%; Mtb betalactam: -4

Results for N#CC1=C(S)N(c2ccccc2)C(c2ccco2)NC1=O (stereo not given) ?
Arbovirus inh: -9; RecA splice inh: -1.6; Mtb H37Rv: -4%; Mtb betalactam: -3

What do the screens show for `O=C(CN1C(=O)c2cccnc2Oc2ccc(Cl)cc21)NC1CCCCCC1`?
RecA splice inh: -0.9; Mtb betalactam: inconclusive

How did CN(CC(=O)O)S(=O)(=O)/C=C/c1ccccc1 do in these assays?
Arbovirus inh: 3; RecA splice inh: -5.0; Mtb H37Rv: -8%; Mtb betalactam: -2

Results for O=S(=O)(NCc1ccccc1)c1ccc(Br)s1 ?
RecA splice inh: 1.4; Mtb betalactam: 11

What do the screens show for `CN(C)NC(=O)c1ccsc1NC(=O)c1ccc(S(=O)(=O)N2CCCC2)cc1`?
RecA splice inh: 1.7; Mtb H37Rv: -2%; Mtb betalactam: -7

Results for CC(C)(C)c1ccc(-c2nc(N)nc(N)n2)cc1 ?
RecA splice inh: 0.7; Mtb H37Rv: 6%; Mtb betalactam: -2

Results for CSc1nnc(-c2sc3cc(C(F)(F)F)cnc3c2-c2ccccn2)n1C ?
YopH PTP inh: 9; Arbovirus inh: 2; RecA splice inh: 2.9; Mtb H37Rv: -2%; Mtb betalactam: -2

What do the screens show for `CCCS(=O)(=O)N1CCN(c2cc3c(cc2[N+](=O)[O-])n(C)c(=O)n3C)CC1`?
Arbovirus inh: 4; RecA splice inh: -0.9; Mtb H37Rv: 4%; Mtb betalactam: -9

How did CCCCCCCCCCCCN1C/C(=C\C(=O)OCC)c2cc(C(F)(F)F)ccc2S1(=O)=O do in these assays?
RecA splice inh: 6.4; Mtb betalactam: -9

What do the screens show for `COC(=O)Cc1nnc(Nc2cccc(C)c2)c2ccccc12`?
RecA splice inh: 1.4; Mtb H37Rv: -5%; Mtb betalactam: -1

Results for Cc1ccc(C(=O)C2=C(O)C(=O)N(c3ncccn3)C2c2ccccc2F)o1 (stereo not given) ?
RecA splice inh: -0.7; Mtb betalactam: 3

Results for Cc1cccc(N(Cc2cc(=O)[nH]c3ccccc23)C(=O)CCl)c1 ?
RecA splice inh: 41*; Mtb betalactam: 61

How did O=C(COC(=O)c1ccc(Br)o1)NCCCc1ccccc1 do in these assays?
YopH PTP inh: -24; Arbovirus inh: 11; RecA splice inh: 1.3; Mtb H37Rv: -2%; Mtb betalactam: 1

Results for CCn1c(=O)cc(SCC(=O)N2CCN(C)CC2)c2ccccc21 ?
YopH PTP inh: -23; Arbovirus inh: -8; RecA splice inh: 5.4; Mtb H37Rv: -4%; Mtb betalactam: -4

What do the screens show for `Clc1ccc(SCCOCCN2CCOCC2)cc1`?
RecA splice inh: -3.4; Mtb betalactam: -5

What do the screens show for `C/C(=N\N1CCN(Cc2ccccc2Cl)CC1)c1ccc([N+](=O)[O-])cc1`?
RecA splice inh: 7.4; Mtb H37Rv: -11%; Mtb betalactam: 0

What do the screens show for `O=c1c(Cc2ccccc2)c(O)ccn1C1CCCCCCC1`?
Arbovirus inh: 10; RecA splice inh: 2.1; Mtb H37Rv: 7%; Mtb betalactam: -4

How did O=C(C1CCN(S(=O)(=O)c2cccc3cccnc23)CC1)N1CCN(C2CCCC2)CC1 do in these assays?
YopH PTP inh: -21; Arbovirus inh: 3; Mtb betalactam: 0; Arbovirus inh repeat: 1

How did O=C(NC1CCCCC1)N1CCCC(CNS(=O)(=O)Cc2ccccc2)C1 (stereo not given) do in these assays?
Arbovirus inh: 0; RecA splice inh: 2.5; Mtb H37Rv: -6%; Mtb betalactam: 7

Results for C=CCc1c(C)nc(SCC(N)=O)[nH]c1=O ?
YopH PTP inh: -38; Arbovirus inh: 1; RecA splice inh: 1.4; Mtb H37Rv: 1%; Mtb betalactam: -1

How did Cc1nnc(SCC(=O)N2CCC(C(=O)Nc3nccs3)CC2)n1Cc1ccccc1 do in these assays?
YopH PTP inh: -28; Arbovirus inh: -3; RecA splice inh: 4.2; Mtb H37Rv: 1%

What do the screens show for `CN(C)c1ccc(C2C=C(c3ccc(Cl)cc3OC(F)F)Nc3ncnn32)cc1` (stereo not given)?
Arbovirus inh: -13; RecA splice inh: -18; Mtb H37Rv: 17%; Mtb betalactam: 79

What do the screens show for `Nc1nnnn1/N=C/c1ccccc1OCc1ccc(Cl)cc1Cl`?
YopH PTP inh: -48; Arbovirus inh: -1; RecA splice inh: -1.8; Mtb H37Rv: -2%; Mtb betalactam: -10

What do the screens show for `CCOc1cc(CN2CCCC(N3CCc4ccccc4C3)C2)ccc1O` (stereo not given)?
RecA splice inh: -6.5; Mtb betalactam: 15

What do the screens show for `O=C1NC(=Nc2ccccc2)CS1`?
RecA splice inh: 0.4; Mtb H37Rv: 4%; Mtb betalactam: 1

What do the screens show for `O=C(Nc1cccc(OC(F)(F)F)c1)c1ccc(Br)o1`?
YopH PTP inh: -28; Arbovirus inh: 7; RecA splice inh: 2.0; Mtb H37Rv: 21%; Mtb betalactam: 3; Arbovirus inh repeat: 2

Results for CCCCn1c(N)c(N(CC(C)C)C(=O)CN2C(=O)C3CCCCC3C2=O)c(=O)[nH]c1=O (stereo not given) ?
RecA splice inh: -3.4; Mtb betalactam: -2

What do the screens show for `Cn1c(=O)oc2cc(S(=O)(=O)N3CCC(C(=O)NCc4cccs4)CC3)ccc21`?
YopH PTP inh: -35; Arbovirus inh: -5; RecA splice inh: -2.7; Mtb H37Rv: -6%; Mtb betalactam: 1; Arbovirus inh repeat: 2

What do the screens show for `O=C(c1ccco1)n1nc(-c2ccccc2)nc1SCc1ccccc1`?
YopH PTP inh: -16; Arbovirus inh: 5; RecA splice inh: 4.2; Mtb H37Rv: 3%; Mtb betalactam: 21

Results for CC(=O)Nc1ccc(S(=O)(=O)N2CCN(C(=O)N3CCCC3)CC2)cc1 ?
RecA splice inh: -1.7; Mtb betalactam: -5

What do the screens show for `COc1ccc(N(C(=O)c2ccccc2C)S(=O)(=O)c2cccs2)cc1`?
YopH PTP inh: -13; Arbovirus inh: -10; RecA splice inh: 8.0; Mtb H37Rv: 2%; Mtb betalactam: -2

Results for c1ccc(N2CCN(c3ncnc4c3oc3ccccc34)CC2)cc1 ?
YopH PTP inh: -28; Arbovirus inh: 11; RecA splice inh: 2.9; Mtb betalactam: -10; Arbovirus inh repeat: 13

Results for CN1CCN(C(=O)CCCOc2cc(=O)n(C)c3ccccc23)CC1 ?
YopH PTP inh: -12; Arbovirus inh: 0; RecA splice inh: -1.7; Mtb H37Rv: -1%; Mtb betalactam: -7

Results for COCCn1c(C)cc(/C=C2/NC(=O)N(c3ccc(Cl)cc3)C2=O)c1C ?
YopH PTP inh: -8; Arbovirus inh: 1; RecA splice inh: 0.4; Mtb H37Rv: 3%; Mtb betalactam: -7

How did COCCNC(=O)CSc1nnc(CCCN2C(=O)c3cccc4cccc(c34)C2=O)n1-c1ccccc1 do in these assays?
YopH PTP inh: -40; Arbovirus inh: -5; RecA splice inh: -2.3; Mtb H37Rv: -11%; Mtb betalactam: 1

Results for Cc1cc(NS(=O)(=O)c2ccc(NC(=O)CCSc3ccc(F)cc3)cc2)nc(C)n1 ?
RecA splice inh: -0.5; Mtb H37Rv: -7%; Mtb betalactam: 3

What do the screens show for `COc1ccc(CNC(=O)C23CC4CC(CC(Br)(C4)C2)C3)cc1`?
RecA splice inh: 1.4; Mtb betalactam: 1

How did N#Cc1c(C(F)(F)F)cc(-c2ccccc2Cl)[nH]c1=O do in these assays?
YopH PTP inh: -32; Arbovirus inh: 28; RecA splice inh: 1.1; Mtb H37Rv: -7%; Mtb betalactam: -3

Results for Cc1ccc(CN2C(=O)CSC(C)C2=O)cc1 (stereo not given) ?
RecA splice inh: 0.1; Mtb betalactam: 3

How did Cc1ccc(Cl)cc1N1CCN(C(=O)CSc2nnc3n2C(C)(C)Cc2ccccc2-3)CC1 do in these assays?
YopH PTP inh: -155; Arbovirus inh: -18; RecA splice inh: -0.3; Mtb H37Rv: 8%; Mtb betalactam: 3

How did CCC(=O)Nc1nonc1-c1nc2ccccc2n1CC(C)C do in these assays?
YopH PTP inh: -27; Arbovirus inh: 13; RecA splice inh: -1.8; Mtb betalactam: -3

How did C=C1SC(=Nc2c(C)cc(C)cc2C)N(C(=O)c2sc3ccccc3c2Cl)C12CCCCC2 do in these assays?
RecA splice inh: 1.9; Mtb H37Rv: 5%; Mtb betalactam: 3

Results for CN(C)CCNC(=O)c1coc(=O)c(Br)c1 ?
YopH PTP inh: -6; Arbovirus inh: -3; RecA splice inh: -1.9; Mtb H37Rv: 2%; Mtb betalactam: -6

How did O=C(O)CC1C(=O)OCN1C(=O)OCc1ccccc1 (stereo not given) do in these assays?
YopH PTP inh: -13; Arbovirus inh: 3; RecA splice inh: -2.5; Mtb H37Rv: -9%; Mtb betalactam: 5

Results for CCOc1ccc2nc(SCC(=O)N3c4ccccc4Sc4ccccc43)c(C#N)cc2c1 ?
YopH PTP inh: -24; Arbovirus inh: -7; RecA splice inh: -2.0; Mtb H37Rv: -1%; Mtb betalactam: -6

What do the screens show for `CC1Cc2ccccc2N1CC(=O)Nc1ccc(S(N)(=O)=O)cc1` (stereo not given)?
RecA splice inh: -3.8; Mtb H37Rv: 4%; Mtb betalactam: -2

What do the screens show for `O=c1[nH]c(-c2ccccc2)c(-c2ccccc2)o1`?
RecA splice inh: 4.9; Mtb betalactam: 3

What do the screens show for `Cc1ccc(CS(=O)Cc2ccc(C(=O)NC3CCC(C)CC3)o2)cc1` (stereo not given)?
RecA splice inh: -0.8; Mtb betalactam: -8

How did Cc1ccc(NC(=O)c2ccn(C(=O)Nc3ccccc3)n2)c(C)c1 do in these assays?
Arbovirus inh: -6; RecA splice inh: 1.1; Mtb H37Rv: -6%; Mtb betalactam: -3

How did O=C1CC(c2ccccc2Cl)=NN(c2ncnc3ccccc23)C1=O do in these assays?
Arbovirus inh: 6; RecA splice inh: -0.5; Mtb H37Rv: 0%; Mtb betalactam: 1

What do the screens show for `O=C(CSCc1ccccc1Cl)NCCSc1ccccn1`?
Arbovirus inh: -4; RecA splice inh: 1.3; Mtb H37Rv: -6%; Mtb betalactam: 3

Results for Cc1cccc(OCc2nc3c4c(ncn3n2)-c2ccccc2CC42CCCC2)c1 ?
YopH PTP inh: -30; Arbovirus inh: -1; RecA splice inh: 0.0; Mtb H37Rv: 11%; Mtb betalactam: -1

How did COc1ccc(CN2CCN(C)CC2)cc1OCc1ccccc1 do in these assays?
YopH PTP inh: -26; Arbovirus inh: 3; RecA splice inh: 3.2; Mtb H37Rv: -8%; Mtb betalactam: -4

How did COc1cc(/C=N/NC(=O)c2ccccc2Cl)ccc1Oc1ccc([N+](=O)[O-])cn1 do in these assays?
Arbovirus inh: -22; RecA splice inh: 0.9; Mtb H37Rv: -4%; Mtb betalactam: 6

Results for c1ccc(CC2CCN(Cc3nc(-c4ccccc4)no3)CC2)cc1 ?
YopH PTP inh: 4; Arbovirus inh: -1; RecA splice inh: 10; Mtb H37Rv: -11%; Mtb betalactam: -2

Results for NCC(=O)CCC(=O)O ?
RecA splice inh: 0.9; Mtb betalactam: 0

Results for ClC(Cl)c1nnc(-c2ccccc2)c(-c2c[nH]c3ccccc23)n1 ?
YopH PTP inh: -11; Arbovirus inh: 2; RecA splice inh: 8.8; Mtb H37Rv: inconclusive; Mtb betalactam: 85

What do the screens show for `C=CCn1c(NCCc2ccccc2)nc2c1c(=O)n(C)c(=O)n2C`?
YopH PTP inh: -21; Arbovirus inh: 11; RecA splice inh: 2.7; Mtb H37Rv: 6%; Mtb betalactam: -17

How did COc1ccc2c(c1)C=C(CN1CCN(Cc3ccccc3C)C(CCO)C1)CO2 (stereo not given) do in these assays?
RecA splice inh: -2.3; Mtb betalactam: 4

Results for O=C(Cc1cccs1)Nn1c(Cc2cccs2)nc2ccccc2c1=O ?
YopH PTP inh: -30; Arbovirus inh: 2; RecA splice inh: 3.6; Mtb H37Rv: -3%; Mtb betalactam: -6

Among those listed so far, 3 contain a cyano group:
Results for N#CC1=C(S)N(c2ccccc2)C(c2ccco2)NC1=O (stereo not given) ?
Arbovirus inh: -9; RecA splice inh: -1.6; Mtb H37Rv: -4%; Mtb betalactam: -3

How did N#Cc1c(C(F)(F)F)cc(-c2ccccc2Cl)[nH]c1=O do in these assays?
YopH PTP inh: -32; Arbovirus inh: 28; RecA splice inh: 1.1; Mtb H37Rv: -7%; Mtb betalactam: -3

Results for CCOc1ccc2nc(SCC(=O)N3c4ccccc4Sc4ccccc43)c(C#N)cc2c1 ?
YopH PTP inh: -24; Arbovirus inh: -7; RecA splice inh: -2.0; Mtb H37Rv: -1%; Mtb betalactam: -6

From PubChem BioAssay

An excerpt, so the mix of outcomes need not match the whole.
